KCNQ2 pot = potentiators of rat KCNQ2 potassium channel | CHO-K1 KCNQ2, FluxOR thallium flux fluorescence; hits give high values | B-score at 10 µM | AID 2239, 2010 | hit rate 0.54% among 310,000 | Potassium voltage-gated channel subfamily KQT member 2 (Rattus norvegicus), O88943;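 active = fluorescence ratio B-score at least 3 SD of library B-scores, with initial fluorescence B-score within 3 SD, cut at about 5.3 in these data; same plate scores as AID 2156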;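 note: B-score of peak minus minimum over baseline fluorescence ratio after K+ and Tl+ stimulus; positive B-score means potentiation of KCNQ2 with more thallium influx and brighter signal; only the inactives scoring about 0 or higher are listed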
Target sequence (O88943 whole entry, looked up): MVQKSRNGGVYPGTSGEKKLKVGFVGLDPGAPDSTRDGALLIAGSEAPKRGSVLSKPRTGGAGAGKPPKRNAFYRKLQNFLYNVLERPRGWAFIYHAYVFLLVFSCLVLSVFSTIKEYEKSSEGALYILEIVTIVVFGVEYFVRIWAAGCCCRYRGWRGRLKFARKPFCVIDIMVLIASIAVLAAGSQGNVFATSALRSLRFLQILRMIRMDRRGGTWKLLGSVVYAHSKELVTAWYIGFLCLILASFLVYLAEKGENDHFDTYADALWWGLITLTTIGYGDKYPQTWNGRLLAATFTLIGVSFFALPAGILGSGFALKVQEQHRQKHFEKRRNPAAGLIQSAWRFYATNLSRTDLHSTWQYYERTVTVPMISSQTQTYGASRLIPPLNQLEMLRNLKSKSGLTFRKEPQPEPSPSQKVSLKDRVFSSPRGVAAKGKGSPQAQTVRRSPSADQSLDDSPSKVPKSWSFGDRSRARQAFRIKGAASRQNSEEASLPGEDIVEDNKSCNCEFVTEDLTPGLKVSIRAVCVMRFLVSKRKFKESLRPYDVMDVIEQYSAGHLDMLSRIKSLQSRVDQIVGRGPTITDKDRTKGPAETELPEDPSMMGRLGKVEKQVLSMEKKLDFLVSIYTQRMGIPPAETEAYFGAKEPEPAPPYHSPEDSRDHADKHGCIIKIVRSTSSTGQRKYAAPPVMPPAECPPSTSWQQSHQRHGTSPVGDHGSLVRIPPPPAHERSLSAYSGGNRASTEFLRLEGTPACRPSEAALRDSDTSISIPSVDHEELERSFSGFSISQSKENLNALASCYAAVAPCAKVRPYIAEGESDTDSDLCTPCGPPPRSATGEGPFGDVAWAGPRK
KCNQ2 pot baseline = recorded beside KCNQ2 pot, whose call it bears; B-score; compound at 10 µM; measured here: initial fluorescence intensity artifact check;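 brightness before thallium and not channel activity; 0 = typical well and far values either way flag optical interference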
Active calls of the source: *; nt = no result given.

Each structure is followed by: KCNQ2 pot	KCNQ2 pot baseline
> Cc1ccc(NC(=O)c2ccc(=O)n(CC(=O)Nc3c(C)cc(C)cc3C)n2)cc1
  0.15	-0.05
> Cc1cc(C)c2c(CC(=O)N3CCCC3)coc2c1
  0.09	-0.1
> C/C(=N\OCC(=O)N/N=C/c1ccccc1O)c1cccs1
  3.2	-0.31
> COc1ccc(C(C(=O)NC2CCCC2)N(C(=O)c2snc(C(N)=O)c2N)c2cc(C)ccc2OC)cc1OC (stereo unspecified)
  0.93	-1.8
> CCCc1nnc(SCC(=O)N2CCCCC2C)n1CCCOC (stereo unspecified)
  1.1	-0.92
> CCOCCCNC(=S)NNC(=O)CCn1nc(C)c(Br)c1C
  0.15	-1
> Cc1cccc(NS(=O)(=O)c2ccccc2)n1
  0.09	-1.5
> COc1cc(/C=C/C(=O)OCC(=O)NCc2ccco2)cc(OC)c1OC
  0.11	-0.46
> Cc1ccccc1NC(=O)c1ccc(NC(=O)C2CC(=O)OC23CCCCC3)cc1 (stereo unspecified)
  1.6	-0.18
> CC1(C)Cc2nc3sc4c(=O)n(CC(=O)NCc5ccccc5)cnc4c3cc2CO1
  0.56	0.68
> O=C(O)CC(C(=O)Nc1ccc(Cl)cc1Cl)C1CCCO1 (stereo unspecified)
  1.2	-2.4
> Cn1ncc2c(NNC(=O)C3CCCCC3)ncnc21
  0.02	-0.01
> c1ccc(Sc2ncnc3c2oc2ccccc23)nc1
  0.46	-0.8
> O=[N+]([O-])c1nn(-c2ccc3c(c2)OCCO3)n(O)c1=NC1CCN(Cc2ccccc2)CC1
  0.75	-0.13
> O=C(CSc1nccc(=O)[nH]1)Nc1ccc(N2CCOCC2)c(Cl)c1
  0.39	-0.2
> O=c1[nH]c(-c2ccccc2)cs1
  0.01	1.5
> Cc1nc(SCc2c(F)cccc2Cl)c2c(=O)n(C)c(=O)n(C)c2n1
  1.4	0.28
> Cc1ccc(S(=O)(=O)NCCC(=O)Nc2ccncc2)cc1C
  0.05	2.6
> COC(=O)c1ccc(CSc2nc3scc(-c4cccs4)c3c(=O)[nH]2)o1
  0.01	1
> CN1CCN(CC(=O)Nc2c(C(=O)C3CC3)oc3ccccc23)CC1
  0.93	-0.26
> COc1ccc(C(=O)COC(=O)c2ccc(NC(=O)c3ccccc3)cc2)cc1
  0.02	1
> Nc1cnnc(N/N=C\c2ccccc2)c1Cl
  0.59	0.2
> COc1ccc(NC(=O)C(=O)c2cn(CC(=O)N3CCCC3)c3ccccc23)cc1OC
  0.6	0.83
> O=C(COC(=O)c1ccc(-c2cnc3ccccc3n2)cc1)c1ccccc1
  1.6	-0.22
> O=c1c2c(nc3c(-c4ccc(Cl)cc4)c[nH]n13)CCC2
  0.59	1.1
> Clc1ccccc1-c1nnc2n1CCCCC2
  0.99	-1.1
> COc1ccc(CC(=O)N/N=C(/C)c2ccco2)cc1
  0.29	0.82
> COC(=O)C1(C)NC(c2ccco2)C2C(=O)N(c3ccc(F)cc3)C(=O)C21 (stereo unspecified)
  2	-1.3
> Nc1ccc(C(=O)O)cc1
  0.77	nt
> CCCN(CCC)S(=O)(=O)c1ccc(NC(=O)Cc2cccs2)cc1
  0.55	0.59
> CC(=O)Nc1ccccc1NC(=O)C/C(C)=N/NC(=O)c1ccc([N+](=O)[O-])c(Cl)c1
  0.43	1.8
> Cc1cc(C)c(NC(=O)CSc2nccn2C)c(C)c1
  0.41	1.6
> CCn1c(C)nc2cc(N)ccc21
  0.11	-0.23
> COC(=O)N/N=C/c1ccc(OS(=O)(=O)c2ccc(C)cc2)c(OC)c1
  0.07	0.23
> CCCCCCCCNC(=O)c1cnccn1
  2.1	-0.17
> Cc1noc(C)c1C(=O)Nc1cccnc1
  0.01	0.66
> CCOc1ccc(S(=O)(=O)N2CCCCC2)cc1NC(=O)Cc1cccs1
  1.7	0.91
> COc1ccccc1C(=O)COC(=O)Cn1[nH]c(=O)c2ccccc2c1=O
  1.3	-1.9
> O=C(NCCO)/C(=C\c1cccc([N+](=O)[O-])c1)NC(=O)c1ccco1
  0.65	-0.04
> O=C(Nc1ccccc1)Nc1ccc(F)c([N+](=O)[O-])c1
  0.22	1.6
> O=C(NC(=S)NCCc1ccccc1)c1ccco1
  1.5	-0.17
> CCS(=O)(=O)Nc1ccc(C2=NN(C(=S)Nc3ccccc3)C(c3ccco3)C2)cc1 (stereo unspecified)
  0.4	2.2
> CC(=O)Nc1ccccc1OCC(=O)NC(C)c1ccc(F)cc1 (stereo unspecified)
  0.84	-0.22
> COc1ccccc1C(=O)COC(=O)CNC(=O)c1ccc(Br)o1
  0.02	1.9
> CCC(=O)Nc1cccc(C2=NOC3(C2)C[C@@H](C(N)=O)N(C(=O)COc2ccc(Cl)cc2)C3)c1 (stereo partly specified)
  0.27	-1.6
> CCSc1ccc([C@@H]2[C@@H]3C(=O)N(CC)C(=O)[C@@H]3[C@]3(C(=O)OC)CCCCN23)cc1
  0.18	0.82
> O=C(NCc1ccccc1)c1ccccc1OCC(=O)N1CCCCC1
  0.29	-1.6
> Cc1cccc(NC(=O)Cn2nnc(-c3cccs3)n2)c1C
  1	-1.6
> CCc1ccccc1NC(=O)C1=CC(c2ccc(OC)c(OC)c2)=NS(=O)(=O)N1C
  0.04	-0.85
> O=C(CN1c2ccccc2Sc2ccccc21)N/N=C/c1ccc([N+](=O)[O-])cc1
  0.04	-0.23
> Cn1ncc2c(NCc3ccccc3)nc(NCCCO)nc21
  2.1	0.26
> Nc1cc(N)nc(SCC(=O)NCC2CCCO2)n1 (stereo unspecified)
  0.12	0.84
> CC(=O)c1c(C)[nH]c(C(=O)Nc2ccc(C)cn2)c1C
  0.8	0.2
> CCOC(=O)N1CCN(c2ccc(F)cc2[N+](=O)[O-])CC1
  0.41	-1.2
> CC(=O)N1CCN(c2ccc(NC(=O)c3cccc([N+](=O)[O-])c3)cc2)CC1
  0.86	1.1
> Cc1ccc(-c2noc(CC(c3ccccc3)c3ccccc3)n2)cc1
  0.44	0.35
> COC(=O)[C@@H]1CCCN1C(=O)c1cc(COc2cccc3cccnc23)on1
  2.3	0.81
> Cc1ccccc1NC(=O)CCN1CCCCCC1
  0.54	0.03
> COc1ccc(N2CCN(c3ncnc4scc(-c5ccc(F)cc5)c34)CC2)cc1
  0.61	-0.64
> CCCCn1c(N)c(N(CCOC)C(=O)COC(=O)c2ccccc2OCC)c(=O)[nH]c1=O
  0.92	-0.78

The list goes on:
Each structure is followed by: KCNQ2 pot	KCNQ2 pot baseline
> CC(C)(C)C(=O)Nc1nnc(COc2ccc(Cl)cc2)s1
  0.12	0.76
> COC(=O)c1cc(CSc2nnc(NC3CCCCC3)s2)oc1C
  0.74	1.8
> Cc1ccc(/C=N/NC(=O)c2cccs2)cc1[N+](=O)[O-]
  0.01	-0.01
> COc1cccc(NC(=O)N2CCC(n3nnc4ccccc43)CC2)c1
  0.04	-2.1
> O=C1CCCC2=C1C(c1ccc(OS(=O)(=O)c3ccc(Cl)cc3)cc1)C1=C(CCCC1=O)O2
  0.67	-0.61
> Cc1noc(C)c1CSc1nnc2n(-c3ccccc3)c(=O)c3ccccc3n12
  0.24	-0.78
> NC(=O)CN1C(=O)C(O)(CC(=O)c2ccccc2O)c2ccccc21 (stereo unspecified)
  1.4	-0.04
> CC(C)(C)NC(=S)N/N=C/c1cc(Br)c(O)c(Br)c1
  3.2	-2.7
> CC(=O)N(Cc1cc(=O)[nH]c2ccccc12)c1ccc(C)cc1C
  0.09	0
> O=C(NCCc1ccccn1)c1cc2ccccc2o1
  0.05	2.5
> Cc1nnc(SCC(=O)N/N=C/c2cc(Cl)c(O)c(Cl)c2)s1
  0.39	0.04
> CCC(=O)Nc1nn(C)c2nc3c(C)cccc3cc12
  0.06	-0.09
> O=C(O)C1=C[C@@H](C2CC2)C[C@@H](OCCCCO)O1
  0.95	-0.08
> O=C(NC1CCCC1)C1CCC(CNS(=O)(=O)c2ccccc2)CC1 (stereo unspecified)
  0.29	2.7
> COc1cc(CNCCN(C)C)c(Br)cc1OC1CCCC1
  0.51	-1.6
> O=C(NCC1CCCO1)c1ccc(COc2ccccc2)cc1 (stereo unspecified)
  0.7	1.7
> COc1ccc(C2C(C#N)=C(N)N(N(C)C)C3=C2C(=O)CC(C)(C)C3)cc1OC (stereo unspecified)
  0.81	1.8
> CC(C)C(C(=O)NC(C)(C)C)N(CCN1CCOCC1)C(=O)CNS(=O)(=O)c1ccccc1 (stereo unspecified)
  1.5	-0.17
> CCC(C)(C)NC(=O)c1ccc2c(c1)N(CC(=O)OC)C(=O)C(C)(C)O2
  0.11	1.1
> Cc1ccc(C(=O)OC(C)C(=O)NC2CCCCC2C)cc1S(=O)(=O)N1CCOCC1 (stereo unspecified)
  0.9	-0.61
> COC1=C(Nc2ccc(OC)cc2)C(=O)c2ccccc2C1=O
  0.18	-1.4
> O=C(NC1(C(F)(F)F)Oc2ccccc2O1)N1CCCC1
  1.4	-1.7
> COc1ccccc1OCC(=O)Nc1nnc(-c2ccco2)s1
  0.04	0.38
> Cc1nnc(SCC(=O)Nc2sc3c(c2C(=O)c2ccccc2)CCCC3)s1
  1.3	-1.2
> Cc1ccc(C(=O)N(Cc2cccs2)C2CCS(=O)(=O)C2)cc1 (stereo unspecified)
  0.02	-0.03
> O=C(CN(Cc1ccc(F)cc1)C(=O)c1csnn1)NCc1ccccc1
  0.82	-0.02
> CC1(C)Cc2c(c(N3CCOCC3)nc3sc4c(NCCN5CCOCC5)nnnc4c23)CS1
  1.3	-1.1
> Cc1cc(C(=O)OCC(=O)N2CCc3ccccc32)c(C)o1
  1.4	3.4
> Cc1cc(Cl)ccc1NC(=S)NCc1ccc(F)cc1
  0.28	0.91
> O=C(Nc1scc(-c2cccs2)c1C(=O)O)c1cccs1
  2.5	-0.61
> O=S(=O)(NCCS(=O)(=O)N1CCN(c2ccccc2)CC1)c1ccc(F)cc1
  0.71	1
> CCOC(=O)N1CCN(Cc2nc3cc(NC(=O)c4cccs4)ccc3n2C)CC1
  0.54	2.4
> CCN(CC(O)COCc1ccc(Cl)cc1)C1CCCCC1 (stereo unspecified)
  0.97	-0.02
> COc1cccc(NC(=O)CSc2nc3c(c(=O)n2C)SC(C)C3)c1 (stereo unspecified)
  1.6	-0.28
> CCOc1ccccc1NC(=O)C(=O)CC(=O)c1cccc(OC)c1
  3.4	0.27
> C=CCNC(=O)c1csc(-c2ccccc2)n1
  1.4	-0.76
> CC(=O)c1ccc(-c2cc([C@H]3[C@H]4C=CC[C@@H](C)[C@@H]4C(=O)N3Cc3ccccc3)ccc2F)cc1
  0.13	1.2
> CCSC1=C(C#N)C(=O)n2c1cc1c2CCCC1
  0.1	0
> COc1ccc(CCN2C(=O)CC(C(C)c3ccccc3)C2=O)cc1OC (stereo unspecified)
  0.6	-1.2
> Cc1ccc(S(=O)(=O)c2cc3c(=O)n4ccccc4nc3n(C)c2=N)cc1C
  0.68	-0.57
> COCCNC(=O)/C(C#N)=C1\N=C(N)c2ccccc21
  0.05	-0.14
> O=C(NNC(=O)C1CC1c1ccccc1)Nc1ccccc1 (stereo unspecified)
  0.24	0.37
> CC1=C(C(=O)OCCCBr)C(c2ccc3c(c2)OCO3)NC(=O)N1 (stereo unspecified)
  0.62	1.2
> Cc1ccc2cc(-c3noc(C4CCCO4)n3)c(=O)[nH]c2c1 (stereo unspecified)
  0.75	-0.23
> Cc1n[nH]c(=O)c2c(NC(=O)CSc3ccc(Br)cc3)oc(C)c12
  2.8	0.44

Shown with the structure last: entries from further up.
KCNQ2 pot	KCNQ2 pot baseline	smiles
0.24	-0.78	Cc1noc(C)c1CSc1nnc2n(-c3ccccc3)c(=O)c3ccccc3n12
2.8	0.44	Cc1n[nH]c(=O)c2c(NC(=O)CSc3ccc(Br)cc3)oc(C)c12
0.97	-0.02	CCN(CC(O)COCc1ccc(Cl)cc1)C1CCCCC1 (stereo unspecified)
0.28	0.91	Cc1cc(Cl)ccc1NC(=S)NCc1ccc(F)cc1
0.75	-0.23	Cc1ccc2cc(-c3noc(C4CCCO4)n3)c(=O)[nH]c2c1 (stereo unspecified)
0.29	2.7	O=C(NC1CCCC1)C1CCC(CNS(=O)(=O)c2ccccc2)CC1 (stereo unspecified)

The list goes on:
Each structure is followed by: KCNQ2 pot	KCNQ2 pot baseline
> CC(OC(=O)c1cccc(-n2cnnn2)c1)C(=O)NCc1ccccc1 (stereo unspecified)
  0.84	2.2
> N=c1c(C(=O)NC2CCCC2)cc2c(=O)n3ccccc3nc2n1C1CCCCC1
  2.4	-0.17
> CCOC(=O)CN(C)C(=O)CCc1nnc(-c2ccc(-c3ccccc3)cc2)o1
  1.2	1
> COc1cc(/C=N/NC(=O)c2ccncc2)ccc1OC(C)=O
  0.45	-0.03

Ordered by the number under KCNQ2 pot baseline (lowest first): 3 of the compounds above
mol | KCNQ2 pot | KCNQ2 pot baseline
Cc1nnc(SCC(=O)Nc2sc3c(c2C(=O)c2ccccc2)CCCC3)s1 | 1.3 | -1.2
O=C(NCCO)/C(=C\c1cccc([N+](=O)[O-])c1)NC(=O)c1ccco1 | 0.65 | -0.04
Cc1ccc(-c2noc(CC(c3ccccc3)c3ccccc3)n2)cc1 | 0.44 | 0.35

A portion of the library. The share of hits here may be higher or lower than overall.
